# NS1 inh = qHTS Assay for Inhibitors of Influenza NS1 Protein Function. S. cerevisiae slowed by influenza A NS1, growth recovery by OD600. Potency, µM (series often up to 46.1 µM), without a hit: at the top dose activity, positive = more growth. actives 0.4% (n = 270,000). AID 2326, 2010; active means well fitted rising curve with a large enough effect; inconclusive means small, poorly fitted or top-dose-only effect; inactive means no such curve, though single readings can be large or run the other way; note: nearly all actives have a fitted effect of over 50% in size
#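 Read-out: OD600 growth recovery of NS1-expressing budding yeast. Cells grown overnight at 30C in -URA glucose medium, washed, resuspended and diluted 1:100 in 2% galactose assay medium, pH 6.0. Same strain lacking NS1 served as positive control.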
# Lassa entry inh = qHTS for Inhibitors of binding or entry into cells for Lassa Virus | Lassa virus pseudotype entry inhibition, cell reporter; control for the full effect not named in the record | Potency, µM (series often up to 37.9 µM), inactives show at the top dose activity change, negative = inhibition, hits mostly inhibitors | actives 1.2% (n = 300,000) | AID 540256, 2011; active means well fitted inhibition curve with a large enough effect; inconclusive means small, poorly fitted or top-dose-only effect, or effect the other way; inactive means flat fitted curve, though single readings scatter; tested in HEK293 cells; note: % is set by controls: 0 for no effect and ±100 for the full control effect; nearly all actives have a fitted effect of over 50% in size; luciferase read-out
# RE007 growth inh = qHTS Assay for Inhibitors of the HIV-1 protein Vpr; Potency, µM (doses to about 92.2 µM), for inactives: at the highest dose activity change, negative = less growth; AID 651644, 2012; actives 0.21% (n = 360,000); S. pombe RE007 Vpr strain, BacTiter-Glo ATP luminescence, 24 h; control for the full effect not named in the record; active = well fitted falling curve with a large enough effect; inconclusive = small, poorly fitted or top-dose-only effect; inactive = no such curve, though single readings can be large or run the other way;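 note: % is set by controls: 0 for no effect and ±100 for the full control effect; nearly all actives have a fitted effect of over 50% in size; the assay follows cell death caused by Vpr and the record does not say whether a fall means rescue or toxicity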
#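 Fission yeast RE007 carrying one integrated HIV-1 vpr copy, seeded at OD 0.01 in PMG+AL medium with 23 nL pinned compound. Grown 24 h at 30 degrees; viability read by BacTiter-Glo luminescence after 5 min.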
# Marburg entry inh = qHTS for inhibitors of binding or entry into cells for Marburg Virus | Marburg virus pseudotyped entry inhibition, cell reporter; control for the full effect not named in the record; about a third of the inactives were read at about 46 µM | Potency, µM (top dose mostly 37.8 µM), without a hit: top-dose activity change, negative = inhibition, usual class: inhibitors | actives 1.8% (n = 300,000); active = well fitted inhibition curve with a large enough effect; inconclusive = small, poorly fitted or top-dose-only effect, or effect the other way; inactive = flat fitted curve, though single readings scatter; tested in HEK293 cells; about a fifth of its hits are not listed in these tables; note: % is set by controls: 0 for no effect and ±100 for the full control effect; luciferase read-out
# SARS PLpro yeast = qHTS of Yeast-based Assay for SARS-CoV PLP | AID 485353, 2010 | Potency, µM (highest dose often 32.9 µM), without a hit: top-dose activity, positive = growth rescue | S. cerevisiae expressing SARS-CoV PLpro, growth rescue; control for the full effect not named in the record | actives 0.19% (n = 330,000); active means well fitted rising curve with a large enough effect; inconclusive means small, poorly fitted or top-dose-only effect; inactive means no such curve, though single readings can be large or run the other way; note: 0% is about no effect; nearly all actives have a fitted effect of over 55% in size; growth read by luminescence after 48 h
# Cruzain inh Det = qHTS Assay for Promiscuous and Specific Inhibitors of Cruzain (with detergent); purified cruzain, Z-FR-AMC fluorescence, 0.01% Triton; Potency, µM, for inactives: max response, negative = inhibition, hits mostly inhibitors; Cruzipain (Trypanosoma cruzi), P25779; actives 0.43% (n = 200,000);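 note: plate controls were neutral wells for no effect and buffer without enzyme for full effect; nearly all actives have a fitted effect of over 40% in size; top concentration of the series not given in the record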
# Target sequence (P25779 123-467 limits assumed): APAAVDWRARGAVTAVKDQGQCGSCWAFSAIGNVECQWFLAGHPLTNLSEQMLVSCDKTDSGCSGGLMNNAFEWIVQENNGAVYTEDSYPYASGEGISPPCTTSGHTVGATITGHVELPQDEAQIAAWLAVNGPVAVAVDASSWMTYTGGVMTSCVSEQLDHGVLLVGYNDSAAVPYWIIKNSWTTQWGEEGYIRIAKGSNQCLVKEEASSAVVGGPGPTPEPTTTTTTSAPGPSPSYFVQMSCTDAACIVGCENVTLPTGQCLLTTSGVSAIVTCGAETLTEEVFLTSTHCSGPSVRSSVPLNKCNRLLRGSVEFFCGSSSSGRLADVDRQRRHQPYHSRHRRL
#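 Detergent-containing arm of a paired screen for aggregation-based inhibition: 0.01% Triton X-100 present. Cruzain at 1.5 nM cleaved 2 uM Z-FR-AMC at pH 5.5 with 5 mM DTT; AMC fluorescence gain over 60 s measured activity.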
# 2A StopGo = High Throughput Screening for Foot and Mouth Disease Virus Antivirals. Potency, µM (doses to about 57.9 µM), without a hit: at the highest dose signal change, negative = less light. actives 1.2% (n = 410,000). human cells with a luciferase reporter of 2A StopGo recoding; control for the full effect not named in the record; active = well fitted falling curve with a large enough effect; inconclusive = small, poorly fitted or top-dose-only effect; inactive = no such curve, though single readings can be large or run the other way; tested in HEK293T cells; note: % is set by controls: 0 for no effect and ±100 for the full control effect; nearly all actives have a fitted effect of over 45% in size; luciferase light after 4 h
# Cruzain noTriton = qHTS Assay for Promiscuous and Specific Inhibitors of Cruzain (without detergent) | Cruzipain (Trypanosoma cruzi), P25779 | purified cruzain, Z-FR-AMC fluorescence, no detergent | actives 2.3% (n = 200,000) | Potency, µM, for the others: max response, negative = inhibition, hits mostly inhibitors;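 note: plate controls were enzyme without inhibitor for no effect and buffer without enzyme for full effect; nearly all actives have a fitted effect of over 40% in size; top concentration of the series not given in the record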
#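 Detergent-free condition (0.00005% Triton X-100) in acetate buffer pH 5.5 with DTT. 1.5 nM enzyme and compound were pre-mixed 15 min, then 2 uM Z-FR-AMC substrate added; reaction progress from fluorescence change between first and third reads (60 s).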
# * hit, by the source's call; ? = inconclusive; . = not tested or not shown; & = joins results of further samples; [ ] = another dose, or the depositor's remark. Unless noted, calls come from the whole dose curve; as a rule, active = well fitted curve in the direction sought with a large enough effect; inconclusive = small, poorly fitted or top-dose-only effect, or another doubt; inactive = no such curve, though single readings can be large; an effect the other way counts as inactive or inconclusive. Potency is the fitted concentration of half-maximal effect. This is a random part of the collection, and some 4.6% of all compounds hit somewhere here.
no.	compound	NS1 inh	Lassa entry inh	RE007 growth inh	Marburg entry inh	SARS PLpro yeast	Cruzain inh Det	2A StopGo	Cruzain noTriton
1	COc1ccccc1NC(=O)CSc1nnc(N)s1	.	3.7%[46.1 µM]	.	.	.	0.7%	-16.9%	4.4%
2	O=C(CN(c1ccc([N+](=O)[O-])cc1)S(=O)(=O)c1ccccc1)N1CCCCC1	2.2%	12.1%[46.1 µM]	-0.1%	-0.1%[46.1 µM]	-2.7%	.	24.1%	.
3	COc1ccc(Cl)cc1N1CCN(CCNC(=O)Nc2ccccc2C)CC1	?	?	-10.6%	?	4.8%	3.7%	?	-7.3%
4	Cc1ccccc1C(=O)NCC(=O)NNC(=O)CCN1CCN(c2ccccc2)CC1	-7.9%	19.3%	0.5%	2.9%	-0.4%	.	-1.5%	.
5	COc1cc(/C=N/NC(=O)c2cccc3ccccc23)ccc1OCC(N)=O	.	-9.2%[46.1 µM]	-19.9%	?	.	.	15.6%	.
6	Cc1ccc(NC(=O)Nc2cn(CC(C)C)c(=O)c3ccccc23)cc1N(C)C	.	1.6%[46.1 µM]	.	.	.	-5.6%	-4.4%	3.5%
7	O=C(CNC(=O)c1ccccc1O)N/N=C/c1cc(Br)ccc1OC(=O)/C=C/c1ccco1	.	5.62µM*	-17.3%	?	31.6%	.	-29.7%	.
8	CC(C)[C@H](NC(=O)N1c2ccccc2NC(=O)[C@@H]1C(C)C)C(=O)N1CCC[C@H]1C(=O)O	3.9%	.	4.2%	.	?	.	5.8%	.
9	Cc1cccc(NC(=O)CSc2nc(COc3ccccc3)nc3ccccc23)c1C	9.9%	6.4%	13.9%	-28.8%	-1.8%	3.3%	.	2.7%
10	COc1ccc(OCC(=O)Nc2cccc(C(=O)Nc3ccccc3C(=O)O)c2)cc1	11.6%	3.1%	1.8%	-15.1%	-6.9%	-17.8%	23.0%	-11.4%
11	O=C(CSc1nnc(SCc2cccc3ccccc23)s1)N/N=C/c1c[nH]c2ccccc12	13.5%	-9.2%	.	?	5.7%	-4.1%	-25.4%	1.5%
12	Cc1cc(Nc2cccc(F)c2)n2nc(-c3ccco3)nc2n1	.	-4.2%[46.1 µM]	.	.	.	-2.4%	0.0%	4.5%
13	CCCCN(CCCNC(=O)C1CCCN(S(=O)(=O)CC)C1)Cc1ccccc1 (stereo not given)	0.6%	7.7%	7.1%	1.4%	-16.7%	5.3%	-5.3%	6.9%
14	CCCCCn1c(=O)c(C(=O)OCC)c(O)c2ccccc21	-52.1%	1.1%	-28.1%	8.1%	-5.6%	-2.9%	-13.2%	-7.6%
15	Cc1cc(C)cc(OC(=O)c2snnc2C)c1	.	5.9%[46.1 µM]	.	16.5%[46.1 µM]	.	-6.9%	8.4%	-12.1%
16	CC(C)NC(=O)/C(C#N)=C/c1ccc(N(C)C)o1	4.4%	?	-0.7%	3.2%	-0.7%	.	56.1%[activator]	.
17	Cc1oc2ccc(O)c(CN(C)C)c2c1C(=O)c1ccccc1	-1.6%	?	-12.5%	11.2µM*	-1.3%	.	-0.4%	.
18	O=C(c1ccccc1)c1ccccc1C(=O)c1ccccc1	-1.3%&4.5%	1.9%[46.1 µM]	24.2%&76.6%	7.7%	2.8%&-0.2%	.	-14.3%&-25.0%	.
19	CC(C)Oc1ccc(N2CC(C(=O)OCC(=O)NCc3ccccc3)CC2=O)cc1 (stereo not given)	-4.6%	1.6%	2.6%	23.2%	-3.1%	4.2%	.	5.8%
20	CCOc1ccc(C2C(C(=O)OC)=CN(CCOC)C=C2C(=O)OC)cc1	-3.5%	-10.0%	-4.5%	4.9%	6.3%	?	.	-22.3%
21	Cc1ccc(C(=O)O)cc1S(=O)(=O)Nc1ccccc1C(=O)NC1CC1	.	12.9%[46.1 µM]	0.2%	?	2.7%	.	-3.0%	.
22	O=C(CN1C(=O)c2ccccc2C1=O)N1CCN(c2nnc(-c3ccccc3)c3ccccc23)CC1	-67.4%	2.9%	-0.2%	9.9%&9.9%	-1.2%	-3.6%	0.0%	-7.1%
23	CCOC(=O)C(C(=O)Nc1nc2ccccc2s1)C1CCCCC1 (stereo not given)	-15.8%	-5.1%	-2.4%	?	-8.7%	-13.7%	-9.5%	-0.9%
24	O=C(c1ccco1)N1CCN(c2ncnc3c(-c4ccccc4)nsc23)CC1	-37.4%	?	?	?	-7.3%	-18.9%	5.2%	?
25	Cc1cc(NCCN2CCOCC2)c2ccc3ccccc3c2n1	-1.2%	.	5.0%	.	-0.3%	.	3.7%	.
26	COc1ccc(OC2C(=O)N(Cc3ccc(F)cc3)C2c2cc(OC)c(OC)c(OC)c2)cc1 (stereo not given)	-7.5%	?	-4.8%	?	23.7%	-4.5%	4.4%	?
27	CS(=O)(=O)/C(C#N)=C/c1c(-c2ccccc2)nc2n1CCS2	10.9%	.	2.1%	.	0.5%	.	-19.6%	.
28	Cc1ccc(C(C)C)c(OCC(=O)Nc2ccc3c(c2)nc(CN2CCCC2)n3C)c1	5.9%	?	36.2%	?	0.7%	-5.6%	?	9.8%
29	O=C(Nc1cccc(C(F)(F)F)c1)c1cncs1	0.4%	.	-16.5%	.	-4.2%	.	12.1%	.
30	CCc1ccc(CN2CCCC(CNC(=O)c3cccc(OC)c3OC)C2)cc1 (stereo not given)	15.3%	0.0%[46.1 µM]	-9.4%	?	7.2%	.	-20.5%	.
31	CNc1ccc(Cl)cc1C(N)=O	3.7%	5.5%[46.1 µM]	8.9%	2.4%[46.1 µM]	0.8%	.	-9.2%	.
32	CCN(CC)c1ccc2cc(C(=O)Nc3ccc(-n4cnnn4)c(OC)c3)c(=O)oc2c1	-9.8%	.	.	0.0%	-4.8%	2.0%	.	-4.6%
33	Cc1ccc(-c2csc(-c3nc(-c4ccc(Br)s4)cs3)n2)cc1	.	21.1%[46.1 µM]	.	?	.	0.1%	3.2%	-2.5%
34	COC(=O)c1[nH]c2ccc(C)cc2c1NC(=O)C(C)N1CCN(C2CCCCC2)CC1 (stereo not given)	-9.6%	20.8%	-7.0%	?	3.1%	-1.6%	-7.3%	-2.4%
35	COc1ccc(-c2csc(NC(=O)CSc3ccc(Br)cc3)n2)c(OC)c1	-4.7%	12.6µM*	7.0%	?	7.5%	-2.2%	?	?
36	COc1ccccc1CNC(=O)CCCCn1c(=O)c2ccccc2n(CC(=O)Nc2cccc(Cl)c2)c1=O	.	-20.9%[46.1 µM]	.	3.9%[46.1 µM]	.	-2.0%	-21.3%	-8.0%
37	COc1ccccc1N1CCN(C(=O)C2CCCN(S(=O)(=O)c3ccc4c(c3)oc(=O)n4C)C2)CC1 (stereo not given)	-9.7%	?	-19.7%	?	-3.5%	1.3%	25.1µM*	?
38	Cc1ccc(NC(=O)C(Cc2ccccc2)NS(=O)(=O)c2cccs2)cc1Cl (stereo not given)	.	1.0%[46.1 µM]	.	-29.9%[46.1 µM]	.	-0.9%	-23.6%	12.6µM*
39	O=c1c2ccccc2nc(-c2ccccc2)n1-n1cccc1	0.7%	15.2%	23.7%	-24.7%	-10.0%	2.6%	-8.1%	3.6%
40	CC(=O)c1cnc(-c2ccccc2)s1	0.9%	0.8%	0.7%	18.8%[46.1 µM]	0.7%	.	49.4%[activator]	.
41	COc1cc(OC)cc(C(=O)Nc2cccc(NC(=O)c3cc(OC)cc(OC)c3)n2)c1	.	21.9%[46.1 µM]	-12.2%	-14.4%[46.1 µM]	.	.	-4.8%	.
42	COc1ccc(CNS(=O)(=O)NCc2ccc(C)cc2)cc1	.	6.9%[46.1 µM]	-10.1%	19.8%[46.1 µM]	2.3%	.	10.6%	.
43	CC(=O)Nc1ccc(S(=O)(=O)N2CCCN(S(=O)(=O)c3ccc(NC(C)=O)cc3)CC2)cc1	8.8%	0.5%	0.0%	-4.2%&-4.2%	-2.1%	-0.9%	-24.1%	-1.1%
44	COc1nc(OC)nc(Oc2ccc(Cl)cc2[N+](=O)[O-])n1	-8.7%	-3.3%	2.3%	-2.4%	6.5%	-2.7%	-16.9%	0.3%
45	Cc1csc2nc(O)c(C(=O)NCCC3=CCCCC3)c(=O)n12	.	14.8%	6.0%	2.2%	-0.4%	.	-22.3%	.
46	COc1ccc(-n2nc(C(F)(F)F)cc2-c2ccc(Cl)cc2)cc1	-41.3%	.	.	?	.	-11.4%&-2.2%	-15.4%	8.0%&-11.2%
47	CCC1=NC(c2ccc(OC)cc2)N(O)C1(C)C (stereo not given)	-5.0%	-13.1%	4.0%	-12.0%	5.9%	2.0%	-12.3%	0.9%
48	C=CCn1c(SCC(=O)NC2CCCc3ccccc32)nnc1-c1ccncc1 (stereo not given)	8.2%	-9.1%	13.6%	?	0.6%	3.2%	-2.5%	0.4%
49	O=C(c1ccc2c(c1)OCO2)N1CCN(c2ccccn2)CC1	16.2%	-3.0%	0.5%	8.0%	2.7%	-2.5%	-16.7%	-6.7%
50	CSc1ncc(CN2CCCC(C(=O)c3ccc(C(C)(C)C)cc3)C2)cn1 (stereo not given)	-8.4%	.	-22.5%	.	2.7%	.	22.1%	.
51	Cc1ccc(NC(=O)CCC(=O)OCC(=O)c2ccc(Oc3ccc([N+](=O)[O-])cc3)cc2)c(C)c1	1.0%	-5.3%	10.0%	9.6%	-6.4%	-5.9%	-14.3%	-6.7%
52	COc1ccc(-n2c(O)c(C(C)=NCC3CCCO3)c(=O)[nH]c2=O)cc1 (stereo not given)	4.0%	?	-3.9%	?	1.5%	.	-7.3%	.

# Screening data deposited in PubChem BioAssay by National Center for Advancing Translational Sciences (NCATS).
